# Bioassay records deposited in PubChem by National Center for Advancing Translational Sciences (NCATS).
# HSD17B inh – inhibitors of human HSD17B10 dehydrogenase; Q99714; AID 893; recombinant HSD17B10, NADH fluorescence kinetic; many of its hits are not listed in these tables; Potency, µM (titrated, usually from 57.1 µM), for the others: at the top dose activity change, negative = inhibition, usual class: inhibitors; hit rate 7.6% among 75,000; active = well fitted inhibition curve with a large enough effect; inconclusive = small, poorly fitted or top-dose-only effect; inactive = no such curve, though single readings can be large or run the other way;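 also: the protocol describes HADH2 (HSD17B10) and not the HSD17B4 of the title; nearly all actives have a fitted effect of over 70% in size; most hits overshoot -100% by far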
#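 Activity followed as NADH fluorescence increase (ex 360, em 450 nm) every 30 seconds for 4 min, using final 90 uM beta-hydroxybutyryl CoA and 1 mM NAD+. Recombinant His-tagged enzyme, 20 nM, pH 9.0 Tris buffer, 15 min compound preincubation.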
# * marks the source's active call; other numbers are inactive results; ? = inconclusive; [ ] = another dose, or the depositor's remark. % is scaled to controls: 0 for no effect and ±100 for the full control effect; potency is read from the fitted curve at half-maximal effect.
SMILES | HSD17B inh
CC(C)C(C(=O)NC(C)(C)C)N1C(=O)c2ccccc2C1=O (stereo unspecified) | 0.5%
O=C(CCNc1n[nH]c(=O)[nH]c1=O)N1CCCCC1 | 4.4%
CC(NC(=O)c1cc(-c2cccs2)on1)c1ccccc1 (stereo unspecified) | 8.6%
O=C(CCn1nnc(-c2cccs2)n1)N1CCc2ccccc2C1 | 3.4%
COc1ccc(C(c2sc3nc(C)nn3c2O)N2CCc3ccccc3C2)cc1 (stereo unspecified) | -4.9%
COc1c(O[C@H]2O[C@@H](CO)[C@@H](O)[C@@H](O)[C@@H]2O)cc2c(c1OC)-c1ccc(SC)c(=O)cc1[C@H](NC(C)=O)CC2 | 4.1%[25.6 µM]
CCCc1nc2ccccc2c(=O)n1NC(=O)c1c(O)c2cccc3c2n(c1=O)CCC3 | 5.1%
COC(=O)C1=C(C)NC(C)=C(C(=O)OC(C)C)[C@H]1c1cccc2nonc12 | -1.6%[25.6 µM]

# Additional structures follow.
SMILES | HSD17B inh
O=C(Cc1cccs1)Nc1ccccc1C(=O)O | 10.4%
C=CCn1c(SCc2c(C)noc2C)nc2cc(C(=O)O)ccc2c1=O | -27.2%
Cc1[nH]nc2c1C(c1ccccc1F)NC2=O (stereo unspecified) | 2.2%
COCc1nnc(NC(=O)c2ccc(S(=O)(=O)N(C)C3CCCCC3)cc2)o1 | 0.9%
CCCCOc1ccc(-c2nnn(C(C)(C)C(=O)OC)n2)cc1 | 0.9%
CSc1nncc(-c2ccc(F)cc2)n1 | 8.7%
C=CCNC(=O)C1CC(=O)N(c2ccc(C)cc2)C1 (stereo unspecified) | -1.5%
COc1ccc(CNc2cc(-c3ccoc3)ncn2)c(OC)c1 | -24.0%

# Going on with the list.
SMILES | HSD17B inh
COc1ccc(OC)c(S(=O)(=O)N2CCC(C(=O)N3CCc4ccccc4C3)CC2)c1 | 6.7%
CCOc1ccccc1C1N(c2ccc(F)cc2)C(=O)C2CCCN21 (stereo unspecified) | 4.3%
Cc1nnc(SCCn2c(N3CCN(C)CC3)nc3c2c(=O)n(C)c(=O)n3C)s1 | 11.8%
N=C1C(c2nc3ccccc3s2)=C(O)CN1CCCO | -23.9%
CC(=O)Nc1nnc(Cc2ccccc2)s1 | 10.8%
CCOC(=O)c1ccc(S(=O)(=O)Nc2ccccc2-c2nnn(CC)n2)cc1 | 7.2%
COCC(=O)N1CCC[C@@]2(CCN(C(=O)Nc3ccccc3)C2)C1 | 7.7%
CCCCCNC(=O)CCn1c(=O)oc2ccccc21 | 8.3%

# (more compounds)
SMILES | HSD17B inh
CCCS(=O)(=O)N1CCC(C(=O)NCc2ccco2)CC1 | -6.2%
Cc1cccc(-c2nnc3n2N=C(c2ccccc2Br)CS3)c1 | -1.0%
Cc1ccccc1Cc1c(C)nc2c(C(=O)N3CCN(Cc4ccc5c(c4)OCO5)CC3)cnn2c1C | -17.8%
CC1CCCCC12NC(=O)N(CC(=O)c1ccc[nH]1)C2=O (stereo unspecified) | -6.8%
O=C(Cn1cnc2c(oc3ccccc32)c1=O)NCc1ccco1 | -2.2%
Cc1cc(OCc2nn[nH]n2)c2c(-c3ccccc3)cc(=O)oc2c1 | 20µM*
O=C(c1cc2c(s1)CCCC2)N1CCN(Cc2ccc3c(c2)OCO3)CC1 | 5.3%
NC(N)=NS(=O)(=O)c1ccc(N)cc1 | 0.8%

# (listing goes on)
SMILES | HSD17B inh
COc1ccccc1CNc1ncncc1-c1ccc(N(C)C)cc1 | ?
O=C(CCC1CCCC1)N1CCN(C2CCCC2)CC1 | 0.1%
CC(C)(C)Sc1nc(O)cc(=O)[nH]1 | 5.5%
COc1ccccc1N1CCN(Cc2cccc(OC)c2OC)CC1 | 8.1%
COc1cc2[nH]c(=S)n(CCCN3CCOCC3)c(=O)c2cc1OC | 1.5%
CN1CCN(Cc2ccc(OCc3ccccc3)cc2)CC1 | 5.6%
COCCn1c(=O)c(CCc2ccccc2)nc2cnc(Oc3ccccc3)nc21 | -5.8%
CCC1SC2=NCCN2C1(O)c1ccc(Cl)cc1 (stereo unspecified) | -0.4%

# Following part:
SMILES | HSD17B inh
COC(=O)CN1C(=O)C(O)(CC(=O)c2ccc(Cl)cc2)c2ccccc21 (stereo unspecified) | 3.4%
COc1cc(C(=O)N2CCN(C(=O)COc3ccc4ccccc4c3)CC2)cc(OC)c1OC | 14.0%
C[C@]1(C(=O)NCCN2CCOCC2)C=C[C@@H](Cc2ccccc2)N1C(=O)c1ccccc1 | -5.9%
O=C(O)c1ccc(NC(=O)C2C3CCC(C3)C2C(=O)O)cc1 (stereo unspecified) | 6.3%
O=C1OCc2cc(NC(=O)C3CCCO3)ccc21 (stereo unspecified) | 3.4%
CC(C)(C)C1=Nn2c(nnc2-c2n[nH]c3c2CCC3)SC1 | 5.2%
O=C(Nc1c(C(=O)N2CCCCC2)cnn1-c1ccccc1)c1ccccc1 | 11.6%
CC1CC(=O)N(CC(=O)Nc2ccc3c(c2)OCO3)c2ccccc2S1 (stereo unspecified) | 2.9%

# Following part
SMILES | HSD17B inh
CC1(C)CC(=O)C(C=NCc2ccccn2)=C(O)C1 | -3.9%
CCOC(=O)c1cccc(NC(=O)CNC(=O)C2CCCCC2)c1 | 13.7%
COc1ccc(-n2c(C)cc(C(=O)COC(=O)Cn3cnc4ccccc43)c2C)cc1 | 10.6%
O=C(c1cnccn1)N1CCC2(CCN(Cc3cc(C(F)(F)F)cc(C(F)(F)F)c3)CC2)CC1 | -8.1%
CSC(=NC1CCCCC1)NS(=O)(=O)c1ccccc1 | 10.3%
CCc1cc2c(=O)c(-c3nc4ccccc4n3C)c(C)oc2c(CN2CCN(C)CC2)c1O | ?
Cc1ccc(S(=O)(=O)N[C@@H](CC(C)C)C(=O)NCc2ccco2)cc1 | 9.6%
C/C1=C2N=C(/C=C3N=C(/C(C)=C4\[N-]C(C)(C5N=C1C(C)(CCC(=O)NCC(C)OP(=O)([O-])O[C@H]1C(O)C(n6cnc7cc(C)c(C)cc76)O[C@@H]1CO)C5CC(N)=O)C(C)(CC(N)=O)C4CCC(N)=O)C(C)(CC(N)=O)C\3CCC(N)=O)C(C)(C)C/2CCC(N)=O.[CH2-]C1OC(n2cnc3c(N)ncnc32)C(O)C1O.[Co] (stereo partly specified) | -2.8%

# Next records follow:
SMILES | HSD17B inh
COC(=O)Cn1c(=NC(=O)CSC(C)=O)sc2ccccc21 | 7.0%
N#CC1=C2SCC(O)(c3ccccc3)N2C(=O)CC1c1cccs1 (stereo unspecified) | -6.3%
Cc1cc(C(=O)OCC(=O)N2CCOCC2)c2ccccc2n1 | -14.0%
CCCCn1c(NCc2ccccn2)nc2ccccc21 | 3.6%
COC(=O)COC(=O)c1ccc(O)cc1 | 0.9%
O=C(CSc1nnc(CN2CCOCC2)n1-c1ccc(Cl)cc1)Nc1cc(Cl)ccc1O | -1.4%
CCN1C(=O)c2cccc3cccc1c23 | -4.0%
Cc1ccc(C)c(NC(=O)C2CC(Cl)=CCC2C(=O)O)c1 (stereo unspecified) | 0.9%

# (list continues)
molecule	HSD17B inh
O=c1[nH]c(=O)c2nc3ccccc3nc2[nH]1	?
COC(=O)[C@@H]1C[C@H]2CC[C@H](O)C[C@H]2N1Cc1ccc(N2CCN(C)CC2)cc1	3.6%
C=CCN1CCN(C(c2ccccc2)c2nnnn2CCC(C)C)CC1 (stereo unspecified)	4.6%
COc1cccc(CNC(=O)C2CCCN(c3nn4c(=O)cc(C)nc4s3)C2)c1 (stereo unspecified)	-1.3%
COc1ccc(OC2C=CC(C#Cc3ccc(Br)cc3)OC2CO)c(C(C)(C)C)c1 (stereo unspecified)	-6.0%[11.4 µM]
O=C(Nc1cccnc1)C1(c2ccccc2)CCCC1	5.2%
Cc1nc2cnc(Nc3ccccc3)nc2n(C)c1=O	-4.7%
CN(C)C(=O)c1ccccc1-c1ccccc1	1.3%
CCN1C(=O)[C@H]2[C@H]3[C@H](O)[C@H](O)C/C(=N/O[C@@H](C)CN4CCCc5nc(C)c(C)cc54)[C@@H]3CC[C@@H]2C1=O	?
CCCc1ccc(S(=O)(=O)NCCc2ccncc2)cc1	10.1%
CCn1c(CCC(=O)Nc2cc(F)ccc2C)nc2cc(S(=O)(=O)N(C)C)ccc21	6.3%
COc1ccc(N2CCN(C(=O)CN(c3cccc(Br)c3)S(C)(=O)=O)CC2)cc1	-1.6%

# (next part)
molecule	HSD17B inh
COC(=O)c1ccc(CSc2nnc(Nc3ccccc3OC)s2)o1	-23.1%
CC(C)c1ccc2oc(-c3ccc(NC(=O)c4ncn[nH]4)cc3)nc2c1	20µM*
COc1ccc(C(=O)Nc2ncc3c(n2)CC(c2ccco2)CC3=O)cc1 (stereo unspecified)	-2.1%
O=S(=O)(c1ccccc1)N1CCC2(CC1)CN(Cc1ccccc1)C2	2.0%
O=C(CCCc1nc(-c2ccccc2Cl)no1)NCc1cccnc1	3.2%
CCn1c(=O)cc(OCC(=O)N2CCN(c3cccc(C(F)(F)F)c3)CC2)c2ccccc21	-16.2%
CCn1c(=N)n(CC(=O)c2cccc(OC)c2)c2ccccc21	-4.2%
CC(C)C(C(=O)Nc1nccs1)c1ccccc1 (stereo unspecified)	-1.6%
CCN(CC)S(=O)(=O)c1ccc(Cl)c(C(=O)NCC2CCCO2)c1 (stereo unspecified)	-9.8%
COc1ccc(N2CSC3=C(C#N)C(c4cccs4)CC(=O)N3C2)cc1 (stereo unspecified)	25.1µM*
CCCC(=O)C1C(=O)CC(C)(C)C(c2cc(C)no2)C1=O (stereo unspecified)	-2.9%
CCCCCOC(=O)c1ccccc1C(=O)O	7.4%

# Further structures:
molecule	HSD17B inh
CCCCN(CC)Cc1ccc(CNC(=O)Nc2ccc(OC)cc2OC)o1	0.0%
COC(=O)c1ccccc1NC(=O)COc1ccccc1	?
COc1ccc(CC(=O)N2CCN(c3ccccn3)CC2)cc1	20µM*
Cc1ccccc1Cc1c(C)nc2ncnn2c1C	3.6%
CCOCCCNC(=O)C(c1ccc(Cl)cc1)N1CCC2(CC1)OCCO2 (stereo unspecified)	1.6%
CCCC1C(C(=O)OCC)=C(C)NC(C)=C1C(=O)OCC	?
O=C(NCc1ccco1)NC12CC3CC(CC(C3)C1)C2	10.1%
COc1ccc(NC(=O)C2CCCN2C(=O)OCc2ccccc2)c(OC)c1 (stereo unspecified)	5.8%
CC1CCN(CC(O)COc2cccc(F)c2)CC1 (stereo unspecified)	1.4%
COc1ccc(NC(=O)Nc2cc(C)ccc2OC)cc1	-3.2%
Clc1ccc(CSc2nnc(-c3ccccn3)n2Cc2ccco2)c(Cl)c1	2.9%
CCOc1cccc(=O)c2c(C)n(C)c(C)c12	2.4%

# Additional compounds.
molecule	HSD17B inh
Cc1nnc(NC(=O)CSc2nnc(Cc3cccn3C)n2-c2cccc(C(F)(F)F)c2)s1	-4.2%
CN(Cc1ccco1)c1ncncc1-c1ccccc1C(F)(F)F	-3.3%
N#CC1=C2SCN(c3ccccc3)CN2C(=O)CC1c1ccccc1Cl (stereo unspecified)	31.6µM*
CS(=O)(=O)c1nc(-c2ccco2)cc(C(F)(F)F)n1	31.6µM*
O=C(CSc1ccc2nnc(-c3cccnc3)n2n1)NCc1ccc2c(c1)OCO2	12.1%
N#CCCN1CCn2c1nc1ccccc12	6.0%
Cc1noc(/C=C/N(C)C)c1S(=O)(=O)N1CCC(C(=O)O)CC1	-11.8%
OC(CNC1CCCCC1)CN1CCN(CC(O)CNC2CCCCC2)CC1 (stereo unspecified)	-3.5%
O=C(O)CC1NC(=O)N(c2ccccc2)C1=O (stereo unspecified)	11.4%
Cn1c(=O)oc2cc(S(=O)(=O)N3CCCC(C(=O)Nc4ccc5c(c4)OCCO5)C3)ccc21 (stereo unspecified)	?
CC1CC(C)CN(C(=O)c2cn(C)c3ccc(S(=O)(=O)N(C)C)cc3c2=O)C1 (stereo unspecified)	-9.5%
Cn1c(C(=O)N2CCN(c3ccccc3F)CC2)cc2c(=O)n(C)c3ccccc3c21	2.8%

# Other entries
molecule	HSD17B inh
COC(=O)c1ccc(C2/C(=C(/O)c3ccc(OC(C)C)cc3)C(=O)C(=O)N2c2cc(C)on2)cc1 (stereo unspecified)	10.5%
COc1ccc(C2/C(=C(/O)c3ccc4c(c3)CC(C)O4)C(=O)C(=O)N2CCN2CCOCC2)cc1 (stereo unspecified)	-2.6%
CN(C)Cc1ccccc1-c1ccc2ncnc(N3CCOCC3)c2c1	2.7%
CN(C(=O)c1cnccn1)c1nnc(-c2cccnc2)s1	-1.4%
O=C(NCc1ccc2c(c1)OCO2)c1ccc(CN2CCOCC2)cc1	3.9%
Cc1cc(C)c2[nH]c(=O)c(C(c3nnnn3C(C)(C)C)N3CCN(C(=O)c4ccco4)CC3)cc2c1 (stereo unspecified)	-16.4%
O=C(COc1cnc2ccccc2n1)NCCC1=CCCCC1	-24.4%
C=CCc1ccc(OCCOCCNCCOC)c(OC)c1	-6.5%
O=C(c1ccc(CS(=O)(=O)c2ccccc2)o1)N1CCN(c2ncccn2)CC1	-4.6%
Cc1c(CN(C)CCc2ccccc2)c(=O)n(-c2ccccc2)n1C	6.5%
O=C(Nc1ccc2c(c1)OCO2)C1CCCN1C(=O)Nc1cccc(F)c1 (stereo unspecified)	-3.9%

# A different layout for some results above:
Molecule: CCCCN(CC)Cc1ccc(CNC(=O)Nc2ccc(OC)cc2OC)o1
  HSD17B inh = 0.0%

Molecule: O=C(CCC1CCCC1)N1CCN(C2CCCC2)CC1
  HSD17B inh = 0.1%

Molecule: O=C(CCn1nnc(-c2cccs2)n1)N1CCc2ccccc2C1
  HSD17B inh = 3.4%

Molecule: CC(C)C(C(=O)Nc1nccs1)c1ccccc1 (stereo unspecified)
  HSD17B inh = -1.6%

# An excerpt, so the mix of outcomes need not match the whole.
